Assay outcomes as filed in PubChem BioAssay.
RE007 growth inh: less growth of the S. pombe RE007 Vpr strain; S. pombe RE007 Vpr strain, BacTiter-Glo ATP luminescence, 24 h; control for the full effect not named in the record; Potency, µM (doses to about 92.2 µM), without a hit: at the highest dose activity change, negative = less growth; 360,000 compounds, 0.21% hits; AID 651644; active = well fitted falling curve with a large enough effect; inconclusive = small, poorly fitted or top-dose-only effect; inactive = no such curve, though single readings can be large or run the other way;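 also: % is scaled to controls: 0 for no effect and ±100 for the full control effect; nearly all actives have a fitted effect of over 50% in size; the assay follows cell death caused by Vpr and the record does not say whether a fall means rescue or toxicity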
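Fission yeast RE007 carrying one integrated HIV-1 vpr copy, seeded at OD 0.01 in PMG+AL medium with 23 nL pinned compound. Grown 24 h at 30 degrees; viability read by BacTiter-Glo luminescence after 5 min.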
Cruzain inh Det: cruzain (T. cruzi) inhibition with detergent. P25779. purified cruzain, Z-FR-AMC fluorescence, 0.01% Triton. Potency, µM, without a hit: max response, negative = inhibition, most hits filed as inhibitors. 200,000 compounds, 0.43% hits;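 also: plate controls were neutral wells for no effect and buffer without enzyme for full effect; nearly all actives have a fitted effect of over 40% in size; top concentration of the series not given in the record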
Target sequence (P25779 123-467 limits assumed): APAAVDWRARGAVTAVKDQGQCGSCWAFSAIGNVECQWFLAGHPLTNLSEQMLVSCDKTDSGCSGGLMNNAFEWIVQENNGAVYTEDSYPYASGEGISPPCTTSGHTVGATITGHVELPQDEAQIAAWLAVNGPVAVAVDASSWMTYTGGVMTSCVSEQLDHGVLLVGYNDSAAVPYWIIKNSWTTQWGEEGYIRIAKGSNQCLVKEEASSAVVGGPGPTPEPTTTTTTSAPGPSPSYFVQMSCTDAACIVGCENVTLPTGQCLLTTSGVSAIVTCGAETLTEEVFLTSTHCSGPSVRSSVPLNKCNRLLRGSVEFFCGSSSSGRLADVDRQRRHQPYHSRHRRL
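Z-FR-AMC hydrolysis (2 uM substrate) by cruzain (1.5 nM) monitored kinetically at ex 360/em 450 nm after 15 min room-temperature compound exposure; 0.01% Triton X-100, pH 5.5, 5 mM DTT.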
Lassa entry inh: inhibitors of Lassa virus binding or cell entry; Lassa virus pseudotype entry inhibition, cell reporter; control for the full effect not named in the record; Potency, µM (series often up to 37.9 µM), for the others: at the highest dose activity change, negative = inhibition, usual class: inhibitors; 300,000 compounds, 1.2% hits; AID 540256; active means well fitted inhibition curve with a large enough effect; inconclusive means small, poorly fitted or top-dose-only effect, or effect the other way; inactive means flat fitted curve, though single readings scatter; tested in HEK293 cells; also: % is scaled to controls: 0 for no effect and ±100 for the full control effect; nearly all actives have a fitted effect of over 50% in size; luciferase read-out
MARV entry inh: inhibitors of Marburg virus binding or cell entry | 300,000 compounds, 1.8% hits | Marburg virus pseudotyped entry inhibition, cell reporter; control for the full effect not named in the record; about a third of the inactives were read at about 46 µM | AID 540276 | Potency, µM (series often up to 37.8 µM), for the others: at the highest dose activity change, negative = inhibition, hits mostly inhibitors; active = well fitted inhibition curve with a large enough effect; inconclusive = small, poorly fitted or top-dose-only effect, or effect the other way; inactive = flat fitted curve, though single readings scatter; tested in HEK293 cells; about a fifth of its hits are not listed in these tables; also: % is scaled to controls: 0 for no effect and ±100 for the full control effect; luciferase read-out
SARS PLP yeast: blocks SARS-CoV papain-like protease in a yeast assay; AID 485353; Potency, µM (doses to about 32.9 µM), for the others: at the highest dose activity, positive = growth rescue; 330,000 compounds, 0.19% hits; S. cerevisiae expressing SARS-CoV PLpro, growth rescue; control for the full effect not named in the record; active means well fitted rising curve with a large enough effect; inconclusive means small, poorly fitted or top-dose-only effect; inactive means no such curve, though single readings can be large or run the other way; also: 0% is about no effect; nearly all actives have a fitted effect of over 55% in size; growth read by luminescence after 48 h
NS1 function inh: blocks influenza NS1 protein function | 270,000 compounds, 0.4% hits | Potency, µM (titrated, usually from 46.1 µM), without a hit: top-dose activity, positive = more growth | S. cerevisiae slowed by influenza A NS1, growth recovery by OD600; active means well fitted rising curve with a large enough effect; inconclusive means small, poorly fitted or top-dose-only effect; inactive means no such curve, though single readings can be large or run the other way; also: nearly all actives have a fitted effect of over 50% in size
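Compounds were scored for reversing the slow growth caused by influenza A NS1 in S. cerevisiae, measured by optical density at 600 nm. Assay medium contained 2% galactose at pH 6.0; NS1-free yeast of the same strain were the positive control.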
Cruzain noTriton: inhibitors of Trypanosoma cruzi cruzain without detergent. purified cruzain, Z-FR-AMC fluorescence, no detergent. Potency, µM, for inactives: max response, negative = inhibition, hits mostly inhibitors. 200,000 compounds, 2.3% hits;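 also: plate controls were enzyme without inhibitor for no effect and buffer without enzyme for full effect; nearly all actives have a fitted effect of over 40% in size; top concentration of the series not given in the record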
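Detergent-free condition (0.00005% Triton X-100) in acetate buffer pH 5.5 with DTT. 1.5 nM enzyme and compound were pre-mixed 15 min, then 2 uM Z-FR-AMC substrate added; reaction progress from fluorescence change between first and third reads (60 s).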
2A StopGo: lowers the luciferase signal of an FMDV 2A StopGo reporter. human cells with a luciferase reporter of 2A StopGo recoding; control for the full effect not named in the record. 410,000 compounds, 1.2% hits. Potency, µM (titrated, usually from 57.9 µM), for the others: at the top dose signal change, negative = less light; active = well fitted falling curve with a large enough effect; inconclusive = small, poorly fitted or top-dose-only effect; inactive = no such curve, though single readings can be large or run the other way; tested in HEK293T cells; also: % is scaled to controls: 0 for no effect and ±100 for the full control effect; nearly all actives have a fitted effect of over 45% in size; luciferase light after 4 h
* hit, by the source's call; ? = inconclusive; / = not tested or not shown; & = joins results of further samples; [ ] = another dose, or the depositor's remark. Unless noted, calls follow the shape of the dose curve; as a rule, active = well fitted curve in the direction sought with a large enough effect; inconclusive = small, poorly fitted or top-dose-only effect, or another doubt; inactive = no such curve, though single readings can be large; an effect the other way counts as inactive or inconclusive. Potency is read from the fitted curve at half-maximal effect.

SMILES	RE007 growth inh	Cruzain inh Det	Lassa entry inh	MARV entry inh	SARS PLP yeast	NS1 function inh	Cruzain noTriton	2A StopGo
CCc1c(C)sc2c1CCN(Cc1ccccc1)C2c1ccccc1 (configuration not stated)	/	-6.0%	?	/	/	/	0%	-24%
CCOc1ccccc1/C=N/NC(=O)c1c(C)nc2ccc(Br)cn12	-9%	/	/	/	-3%	-1%	/	?
CC(=O)Cc1nsc(NC(=O)c2cc(-c3ccc(Cl)c(Cl)c3)oc2C)n1	-8%	-1.4%	-5%	-10%	-3%	10%	0%	-17%
Cc1ccc(S(=O)(=O)N2CCOCC2)cc1NC(=O)CSc1nnc2cc(C)c3ccccc3n12	-1%	3.0%	?	?	6%	8%	?	?
COc1ccc(-n2c(=O)[nH]cc(C(=O)Nc3ccc(NC(C)=O)cc3)c2=O)cc1	11%	-0.4%	1%	2%	-8%	5%	2%	/
C[C@H](NC(=O)c1ccccc1Cl)C(=O)OCC(=O)N1CCN(c2ccccc2)CC1	-12%	/	8%	-2%	/	/	/	-17%
CN(C)/C=N/c1c(C#N)nnn1Cc1ccccc1	41%	0.5%	-1%	11%	-5%	-49%	9%	0%
Cc1ccc(Cn2cccc(NS(C)(=O)=O)c2=O)cc1	-14%	/	?	18%	5%	14%	/	-1%
Cc1ccccc1N(CC(=O)NC1CCCC1)C(=O)CS(=O)CC(=O)Nc1ccc2c(c1)OCO2 (configuration not stated)	9%	4.8%	25%[14.3 µM]	2%	-2%	-7%	1%	14%
CCCn1c(SCC(=O)N2CCN(c3ccc(OC)cc3)CC2)nc2c1c(=O)n(C)c(=O)n2C	-19%	-1.8%	8%	-24%	0%	-4%	9%	?
O=C(CCN1CCN(C(c2ccccc2)c2ccccc2)CC1)N/N=C/c1ccc(O)cc1O	-2%	-3.6%	?	?	4.5µM*	15%	-1%	-23%
Cc1nc2ccc(N3CCN(C)CC3)cc2nc1C	-10%	/	19%	27%[46.1 µM]	-3%	/	/	24%
CC(=O)c1ccc(OC(=O)C2c3ccccc3Oc3ccccc32)cc1	0%	-6.9%	20%	?	0%	-1%	1%	-16%
CCN(CC)c1ccc(NC(=O)CN2CCN(c3ccccn3)CC2)cc1	-15%	/	/	/	2%	-1%	/	-7%
CCCC(c1nnnn1Cc1ccc(OC)cc1)N1CCN(c2ccccc2OC)CC1 (configuration not stated)	-12%	-5.0%	?	?	-2%	-50%	11%	35µM*
O=C(O)CCNC(=O)c1ccc(Br)o1	-12%	1.8%	0%	11%	-1%	1%	4%	0%
COc1cc(/C=N/n2c(C)nc3ccccc3c2=O)ccc1O	-15%	/	/	/	3%	6%	/	-25%
COc1ccc(CC(=O)N2CCCC(CNC(=O)c3ccccc3Cl)C2)cc1 (configuration not stated)	11%	/	/	/	0%	4%	/	0%
CC1CCN(c2ccc(-c3cccc(NS(=O)(=O)c4cccs4)c3)nn2)CC1	/	-5.1%	-2%[46.1 µM]	/	/	/	?	?
CCN(Cc1ccncc1)C(=O)CCc1nnc(CCc2ccc(OC)cc2)o1	1%	/	0%[46.1 µM]	-11%[46.1 µM]	-1%	-5%	/	-4%
O=C(CNC(=O)c1ccco1)NCC(=O)OCc1ccc(F)cc1	8%	/	8%	-4%[46.1 µM]	2%	3%	/	22%
Cc1nn(C)c(Cl)c1C(N)=O	2%	/	1%[46.1 µM]	1%[46.1 µM]	0%	3%	/	-7%
CCN(CC(=O)NCc1ccccn1)S(=O)(=O)c1cc(Cl)ccc1Cl	-15%	/	11%	-4%[46.1 µM]	2%	/	/	-3%
COc1ccc2[nH]c(=O)c(CN(C)C(=O)c3ccncc3)cc2c1	4%	-1.3%	-16%	28%	-4%	4%	-6%	1%
C#CCNC(=O)C1=C[C@@H](C2CCCCC2)C[C@@H](OCc2ccc(CO)cc2)O1	-3%	/	/	/	-1%	-4%	/	-8%
CC(C)CNC(=O)CC1Nc2ccccc2NC1=O (configuration not stated)	8%	/	8%	?	1%	2%	/	-7%
COc1ccccc1NC(=O)c1csc(-n2nc(C)cc2C(F)(F)F)n1	14%[3.69 µM]	4.3%	-5%	12%	2%	3%	-7%	-20%
CCC(C(=O)O)n1nc(-c2ccccc2)c2cc(Cl)ccc21 (configuration not stated)	13%	/	13%[46.1 µM]	?	-1%	/	/	-13%
Cc1sc2ncn(CC(=O)N3CCN(c4ccccc4)CC3)c(=O)c2c1S(=O)(=O)N1CCOCC1	15%	/	7%	-4%[46.1 µM]	/	6%	/	-7%
O=S(Cc1cc(Sc2ccccc2)nc(-c2ccccc2)n1)c1ccccc1 (configuration not stated)	0%	-2.7%	?	?	1%	-8%	2%	-12%
CCOc1ccccc1NC(=O)c1cnn2c(C(F)F)cc(-c3ccccc3)nc12	/	-2.8%	-1%[46.1 µM]	/	/	/	-19%	-7%
CC1SC(c2ccc(F)cc2)NC1=O (configuration not stated)	-17%	/	13%[46.1 µM]	-13%&-13%[46.1 µM]	0%	0%	/	-4%
Cc1ccc(C)c(CN2C(=O)CSc3ccc(C(=O)N4CCCC4)cc32)c1	5%	/	?	?	0%	9%	/	13%
CCn1c(SCc2nc(-c3ccc(OC)c(OC)c3)no2)nnc1-c1cccs1	8%	-2.5%	?	-38%	-19%	-16%	-10%	/
Cc1nnsc1C(=O)Nc1cccc(Cl)c1Cl	2%	-3.0%	2%	5%	5%	-4%	1%	-3%
COc1ccccc1NC(=O)C(=O)N/N=C/c1ccc([N+](=O)[O-])s1	-1%	/	/	/	-2%	-9%	/	-19%
COc1ccccc1CN1C(=O)CCC1(C)C(=O)NCc1cccnc1 (configuration not stated)	-8%	1.8%	7%	7%	15%	-4%	4%	13%
CN1CCN(C(=O)c2c(O)c3cccc4c3n(c2=O)CC4)CC1	6%	6.4%	-3%	5%	-2%	-10%	5%	-22%
CC(C)(C)N1CC2([N+](=O)[O-])CN(C(C)(C)C)CC([N+](=O)[O-])(C1)C2	-5%	5.4%	4%	-9%	-5%	-3%	-3%	-27%
COc1ccc(NC(=O)N(Cc2nnc3n2CCCCC3)c2ccc(OC)c(Cl)c2)cc1	/	2.1%	?	/	/	/	1%	-13%
O=C(OCc1ccccc1Cl)C1CC(=O)N(Cc2ccco2)C1 (configuration not stated)	-1%	/	2%	5%	-16%	/	/	-6%
O=C(COc1ccc(-n2cnnn2)cc1)NCCc1ccc(F)cc1	-4%	4.5%	-15%	12%[46.1 µM]	-2%	-103%	-9%	-18%
O=C(CCCCC(=O)Nc1ccccc1Cl)Nc1ccccc1Cl	3%	/	/	/	1%	6%	/	-10%
Cc1csc(=O)n1CC(=O)OCC(=O)NNC(=O)c1ccccc1	-17%	/	17%	8%	2%	-3%	/	-8%
CC(=NNC(=S)Nc1ccccc1Cl)c1ccccn1	?	/	0.25µM*	?	/	/	/	7%
CC(C)c1ccccc1OCC(=O)N(C)CC(=O)Nc1ccc(F)cc1	-19%	/	13%	-23%	-2%	/	/	-27%
Cc1cccc(Cc2nnc(CCC(=O)N(CC3CC3)CC3CCCO3)o2)c1 (configuration not stated)	4%	/	-2%[46.1 µM]	?	0%	-4%	/	35%[activator]
Cc1cccc2c1N(C(=O)c1ccco1)C(C)(C)c1ssc(=S)c1-2	1%	4.8%	13%	?	0%	-7%	-12%	-26%
Cc1cc(/C=C(\C#N)C(=O)NCc2ccco2)c(C)n1-c1cccnc1	9%	/	-21%[46.1 µM]	?	1%	-8%	/	22%
Cn1c(=O)c2c(nc(NCc3ccccc3)n2Cc2ccccc2Cl)n(C)c1=O	/	-1.1%	-20%[46.1 µM]	-2%[46.1 µM]	/	/	-8%	-1%
O=C(CN(c1ccccc1)S(=O)(=O)c1ccccc1)N1CCOCC1	6%	/	9%[46.1 µM]	?	0%	-1%	/	19%
Cn1c(-c2ccccc2)cnc1SCC(=O)N1CCCc2ccccc21	5%	-1.0%	7%	1%	-13%	-7%	-1%	-8%
CC(Cc1ccccc1)N1Cc2ccccc2C1 (configuration not stated)	-8%	/	/	/	2%	-1%	/	12%
CCCCN(C(=O)c1cc(CN2C(=O)c3ccccc3C2=O)ccc1OC)c1c(N)n(CC(C)C)c(=O)[nH]c1=O	-2%	/	7%	5%	/	/	/	-2%
COc1ccc(CN(C)CC2CCCN(CCc3ccc(F)cc3)C2)cc1OC (configuration not stated)	-10%	/	/	/	20%	24%	/	-1%
Cc1[nH]c2ccccc2c1CCNC(=O)CCC(=O)c1ccccc1	5%	/	12%	1%	0%	0%	/	-1%
Cc1nc2ccc3[nH]snc3c2n1	-11%	-2.9%	12%	-2%	-14%	-45%	2%	9%
Cc1ccc(Cl)cc1N1CCN(C(=O)C2CCCN(S(=O)(=O)c3ccc(Br)s3)C2)CC1 (configuration not stated)	/	2.8%	?	/	/	/	-5%	?
O=C(OCC1CCCN2CCCCC12)c1ccc2c(c1)OCO2 (configuration not stated)	-7%	-0.1%	8%	16%	-12%	-1%	3%	/
O=C(CCn1nc(-c2ccccc2)ccc1=O)NCCCN1CCCCCC1	-3%	-6.5%	-8%	28%	3%	-8%	1%	-8%

Carrying on.
SMILES	RE007 growth inh	Cruzain inh Det	Lassa entry inh	MARV entry inh	SARS PLP yeast	NS1 function inh	Cruzain noTriton	2A StopGo
Cc1csc2nc(CCNS(=O)(=O)c3ccccc3)cn12	/	0.3%	12%[46.1 µM]	/	/	/	5%	-5%
CC(=O)c1ccc(NC(=S)N2CCCCCC2)cc1	6%	/	17%	10%[46.1 µM]	-1%	-2%	/	84%[activator]
Cc1c(NC(=O)c2sc3ccccc3c2Cl)cccc1-c1nc2ccccc2o1	/	-0.3%	-20%[46.1 µM]	/	/	/	0%	-14%
COc1ccc(-c2nc(-c3ccccc3)ncc2S(C)(=O)=O)cc1	-21%	/	-2%	0%[14.2 µM]	-1%	-2%	/	-6%
Cc1nc(NC(=O)CN2CCOCC2)sc1C(=O)N(C)C	3%	/	1%	12%	2%	-10%	/	-7%
COC(=O)c1nc[nH]c1C(=O)OC	0%	/	-2%[46.1 µM]	16%[46.1 µM]	0%	0%	/	5%
CC1=CC2=NC(=O)/C(=C\c3cccn3CCOc3cccc(C)c3)C(=N)N2O1	6%	-9.8%	?	3%	-24%	6%	7%	54%[activator]
